VACV mCherry inh – inhibitors of vaccinia virus infection (mCherry reporter signal); Vaccinia virus mCherry reporter infection, fluorescence; about a quarter of the inactives have no number; Potency, µM (top dose mostly 36.5 µM), without a hit: at the top dose activity change, negative = inhibition, usual class: inhibitors; actives 0.63% (n = 310,000); AID 720579; active = well fitted inhibition curve with a large enough effect; inconclusive = small, poorly fitted or top-dose-only effect; inactive = no such curve, though single readings can be large or run the other way; tested in A549 cells; note: nearly all actives have a fitted effect of over 35% in size; inactives centre near -10
VACV Venus inh – vaccinia inhibition (Venus reporter) | Vaccinia virus Venus reporter expression, fluorescence | actives 0.46% (n = 330,000) | AID 720580 | Potency, µM (doses to about 36.5 µM), for the others: at the highest dose activity change, negative = inhibition, actives largely listed as inhibitors; active means well fitted inhibition curve with a large enough effect; inconclusive means small, poorly fitted or top-dose-only effect; inactive means no such curve, though single readings can be large or run the other way; tested in A549 cells; note: nearly all actives have a fitted effect of over 30% in size; inactives centre near -10
* hit, by the source's call; i = inactive; ? = inconclusive; . = not tested or not shown; & = joins results of further samples; [ ] = another dose, or the depositor's remark. % is set by controls: 0 for no effect and ±100 for the full control effect; potency is the fitted concentration of half-maximal effect.

SMILES,VACV mCherry inh,VACV Venus inh
O=C1C(Cc2ccccc2)Nc2ncnc(N3CCc4ccccc4C3)c2N1Cc1ccc(Cl)cc1 (configuration not stated),?,?
CCN(CC)S(=O)(=O)c1cccc(NC(=O)COC(=O)CCC(=O)c2cccs2)c1,i,-1%
NC(COCc1ccccc1)c1csc(NC(=O)Nc2cccc(C(F)(F)F)c2)n1 (configuration not stated),-24%,?
Cc1cc(C)n(C(C)CC(=O)NCc2ccc(Cl)cc2)n1 (configuration not stated),-2%,-7%
CC1CCN(C(=O)Cn2cc(SCC(=O)NCc3ccc(F)cc3)c3ccccc32)CC1,6%,-6%
CCOC(=O)NC(Nc1nnc(SCC)s1)(C(F)(F)F)C(F)(F)F,.,17%
CCN1CC(c2ccccc2)C(c2ccc(Cl)cc2)=N1 (configuration not stated),-5%,-11%
COc1ccccc1CNc1nc(-c2ccccc2CO)c2sccc2n1,11%,-8%
COc1cc(NC(=O)COc2ccccc2)ccc1NC(=O)c1ccco1,-19%,-14%
Cc1ccc(NC(=O)C2CCCN2C(=O)Oc2ccccc2)c(C)c1 (configuration not stated),i,3%
Cc1ccnn1Cc1cc(C(=O)O)c2ccccc2n1,-8%,-1%
N#Cc1ccc(NC(=O)Cn2cnc(S(=O)(=O)N3CCOCC3)c2)cc1,9%[7.34 µM],14%[7.34 µM]
Cc1cc(C)cc(C(N)=Nc2cccc(C#N)c2)c1,i,-7%
Cc1ccc(CNC(=O)C2CC(c3cccc([N+](=O)[O-])c3)=NO2)o1 (configuration not stated),-7%,-23%
O=C(CSc1nc(C2CCCCC2)nc2ccccc12)NCc1ccco1,?,?

Another view of part of the listing above.
Screens in order: VACV mCherry inh	VACV Venus inh
O=C(CSc1nc(C2CCCCC2)nc2ccccc12)NCc1ccco1
→ ?	?
Cc1ccc(NC(=O)C2CCCN2C(=O)Oc2ccccc2)c(C)c1 (configuration not stated)
→ i	3%
NC(COCc1ccccc1)c1csc(NC(=O)Nc2cccc(C(F)(F)F)c2)n1 (configuration not stated)
→ -24%	?

Other results follow:
SMILES,VACV mCherry inh,VACV Venus inh
CCOC(=O)C1Oc2ccccc2C(c2ccc(C)cc2)=C1C(=O)OC (configuration not stated),-2%,-20%
COCC(C)NC(=O)c1cc(-c2cccc(OC)c2)on1 (configuration not stated),-10%,-10%
CCCCOc1ccc(N2C(=O)CC(NCc3ccncc3)C2=O)cc1 (configuration not stated),i,-1%
CCN1CCN(c2cc(N3CCCC3)c([N+](=O)[O-])cc2F)CC1,?,-20%
CCOc1ccc(CCNC(=O)c2cc3cc4ccc(OC)cc4nc3s2)cc1OCC,?,?
O=C(CCCc1nc2ccccc2s1)N1CCN(S(=O)(=O)c2cccs2)CC1,-22%,-14%
N#Cc1c(-c2ccccc2)cc(-c2ccc3c(c2)OCO3)[nH]c1=O,-13%,-4%
CC(=O)c1cccc(OC(=O)c2ccccc2)c1,-14%,-7%
COC(=O)c1ccc(CNC(=O)c2ccc(OCC(=O)N3CCOCC3)c(OC)c2)cc1,-14%,-7%
CCC1(CC)C(=O)C2=C3C1[C@H](C(=O)OC)C=C(C(=O)OC)C[C@H]3n1c(=O)n(C)c(=O)n1[C@H]2C (some centres not stated),i,1%
Cc1ccc(CCNC(=O)c2ccc(CNS(=O)(=O)c3ccc(F)cc3)cc2)cc1,-7%,-5%
CCN(CC)c1ccc2cc(-c3nnc(-c4cccc(Cl)c4)o3)c(=O)oc2c1,-23%,4%
Cc1ccc2c(c1)C1C3CCC(C3)C1S(=O)N2 (configuration not stated),?,2%
COc1ccc(NC2CCN(C3CC(=O)N(c4ccc(F)c(Cl)c4)C3=O)CC2)cc1 (configuration not stated),.,-24%
O=C1CC(=O)CC(c2ccccc2)C1,i,7%
COc1cc(C2C(=O)N(C3CCCC3)CC(=O)N2Cc2ccco2)ccc1OC(C)C (configuration not stated),-3%,-2%
CCC1(c2ccccc2)NC(=O)N(CC(=O)N(C)Cc2ccccc2)C1=O (configuration not stated),i,-8%
Cn1c(=O)n(C)c2cc(NS(=O)(=O)c3ccc(C(C)(C)C)cc3)ccc21,-1%,-14%
O=C(COC(=O)c1ccc(O)cc1O)Nc1cc(-c2ccccc2)nn1-c1ccccc1,-5%,-3%
NC(=O)c1ccccc1NC(=O)COc1ccc2c(c1)OCO2,-4%,-16%
CCc1nnc(NC(=O)c2ccc(Cl)nc2)s1,i,-11%
CCOc1cc2[nH]c(=S)n(CCC(=O)NCc3ccco3)c(=O)c2cc1OCC,-14%,-10%
O=C(NCc1ccc(F)cc1)C1CC(=O)N(C2CCCCC2)C1 (configuration not stated),i,-15%
CCOc1ccc(OCC)c(NC(=O)c2ccc(-c3ccccc3)s2)c1,0%,5%
Cc1ccc(NS(=O)(=O)c2ccc(C3CCCCC3)cc2)cc1,?,?
CCCS(=O)(=O)n1nc(-c2ccc(OC)cc2OC)cc1N,i,-3%
O=C1NC2(CCCCCCC2)C(=O)N1Cc1ccc(F)cc1,i,-8%
COc1ccc(CCNC(=O)CCCCCn2c(SCC(N)=O)nc3cc4c(cc3c2=O)OCO4)cc1OC,?,5%&-21%
CCN1C(=O)NC(=O)/C(=C\c2cn(CC(=O)N3CCCCC3C)c3ccccc23)C1=O (configuration not stated),i,-2%
COc1ccc(NC(=O)C2C(=O)NC3(C)CC2c2ccccc2O3)cc1 (configuration not stated),-15%[1.46 µM],-18%

A draw from above in order of molecular weight, ascending.
SMILES,VACV mCherry inh,VACV Venus inh
CC(=O)c1cccc(OC(=O)c2ccccc2)c1,-14%,-7%
NC(=O)c1ccccc1NC(=O)COc1ccc2c(c1)OCO2,-4%,-16%
Cc1ccc(NS(=O)(=O)c2ccc(C3CCCCC3)cc2)cc1,?,?
Cn1c(=O)n(C)c2cc(NS(=O)(=O)c3ccc(C(C)(C)C)cc3)ccc21,-1%,-14%
COc1ccccc1CNc1nc(-c2ccccc2CO)c2sccc2n1,11%,-8%
CCOc1cc2[nH]c(=S)n(CCC(=O)NCc3ccco3)c(=O)c2cc1OCC,-14%,-10%
O=C(CCCc1nc2ccccc2s1)N1CCN(S(=O)(=O)c2cccs2)CC1,-22%,-14%

2 entries picked at random from the list so far:
SMILES,VACV mCherry inh,VACV Venus inh
Cn1c(=O)n(C)c2cc(NS(=O)(=O)c3ccc(C(C)(C)C)cc3)ccc21,-1%,-14%
Cc1ccc(CNC(=O)C2CC(c3cccc([N+](=O)[O-])c3)=NO2)o1 (configuration not stated),-7%,-23%

The main list resumes; the 3 compounds before the break are reprinted first.
SMILES,VACV mCherry inh,VACV Venus inh
COc1ccc(CCNC(=O)CCCCCn2c(SCC(N)=O)nc3cc4c(cc3c2=O)OCO4)cc1OC,?,5%&-21%
CCN1C(=O)NC(=O)/C(=C\c2cn(CC(=O)N3CCCCC3C)c3ccccc23)C1=O (configuration not stated),i,-2%
COc1ccc(NC(=O)C2C(=O)NC3(C)CC2c2ccccc2O3)cc1 (configuration not stated),-15%[1.46 µM],-18%
O=C(c1ccc(Cl)c(Cl)c1)N1CCC(=O)N(C(COCc2cccc(C(F)(F)F)c2)Cc2ccccc2)CC1 (configuration not stated),i,-27%
CSc1ccccc1C(=O)C1CCCN(C(=O)CCc2cccnc2)C1 (configuration not stated),-6%,-5%
COC(=O)c1ccccc1NC(=O)CSc1nncn1C,-3%,-6%
CC(C)C(=O)NC(=S)Nc1ccccc1C(=O)Nc1ccccc1,-1%,-13%
CCOC(=O)c1ccc(NC(=O)CSc2n[nH]c(-c3ccncc3)n2)cc1,.,-16%
COc1ccc(C2=NCCn3cccc32)c(OC)c1,i,-1%
CCOC(=O)c1c(-c2ccc(OC)cc2)csc1/N=C/C1=C(O)CCCC1=O,17%,43%[activator]
O=C(CCNS(=O)(=O)c1cccc2nonc12)Nc1ccc(Cl)cc1,i,-8%
COc1ccc(C2CC(=O)N3CN(C4CCCCC4)CSC3=C2C#N)cc1 (configuration not stated),-15%,-5%
Clc1ccc(-c2cc(COc3ccccc3)no2)cc1Cl,i,-5%
C#CCOCCOCCOCCNc1nc(N2CCOCC2)nc(N2CCN(C(=O)CCCCCCCCCCNC(=O)[C@@H](CCSC)n3cc(CCO)nn3)CC2)n1,i,-28%
COc1cccc(-c2nc(CS(=O)(=O)CC(=O)NCc3ccc(Cl)cc3)c(C)o2)c1,i,-10%
CCOCCc1nn2c(=O)cc(COC(=O)c3ccccc3Br)nc2s1,-10%,-11%
Cc1cc(=O)c2ccccc2n1CC(=O)NCc1ccccc1,-2%,-18%
COc1ccc(-c2cc3ccccc3n2CC(O)CN2CCN(CCO)CC2)cc1 (configuration not stated),12%,-10%
Cc1ccc(C2=NNC(=Nc3ccc(F)cc3)SC2)cc1,-22%,-22%

Screens: PubChem BioAssay, National Center for Advancing Translational Sciences (NCATS)
